Yeast UUG start: modulators of start codon recognition fidelity in yeast. hit rate 0.13% among 350,000. S. cerevisiae UUG-firefly luciferase reporter, luminescence/redox ratio. activity score, % at 18.7 µM;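 active = replicate mean at a twofold rise or more, about +100% in these data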;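 also: firefly luciferase made from a UUG start codon reports start codon fidelity; reporter light over untreated wells divided by growth signal over untreated wells; some hits fall short of that in this replicate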
eIF4H FP inh: inhibitors of RNA binding by human eIF4H. Q15056. eIF4H fluorescence polarization binding assay. inhibition, % at 35 µM. hit rate 0.94% among 290,000. AID 2012;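 active = 50% or more with normal probe brightness, or confirmed in later tests; inconclusive = above 50% with abnormal brightness, or retests that disagree; inactive = below 50% or failed in later tests; about a fifth of its hits are not listed in these tables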;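 also: calls also rest on retests at 20 µM and on dose response follow-up; 0% = protein and probe with vehicle and 100% = probe without protein; strong numbers were not always called active; many hits fall short of the cut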
MT1-MMP act inh: inhibitors of human MT1-MMP activation; P50281; HT1080 RFP-PRO-GFP cells, GFP/RFP ratio fluorescence, overnight; percent of plate control window, DMSO zero; GFP/RFP ratio change, % at 20 µM; hit rate 0.061% among 360,000; AID 651647;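 active = GFP/RFP ratio change of at least 30% with cell ATP level not reduced by more than half and red fluorescence within 50% of control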; also: strong numbers were not always called active
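Test system: HT1080 cells expressing an RFP-PRO-GFP fluorescent reporter construct / Compound dosing: single-point 20 µM compound, 1% DMSO / Schedule: cells overnight before dosing, compound overnight, 37 °C, 5% CO2 / Evaluation: GFP/RFP fluorescence ratio / Control set: DMSO and RFP-L50D-GFP cell wells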
Env fusion inh: HIV envelope-mediated fusion inhibition; hit rate 1.1% among 360,000; HeLa-JRFL Env/CEM21 cell fusion, luciferase; inhibition, % at 12.3 µM;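 active = mean replicate inhibition score of at least 50 and every replicate individually at or above 50; inconclusive = only one of the two criteria met; inactive = mean below 50 and not all replicates reaching 50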;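 also: 0% = plate neutral controls and 100% = maraviroc near 300 nM; one replicate is shown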
CSC inhib: blocks cancer stem cells. cancer stem cell-like cells viability, luminescence. inhibition, % at 7.5 µM. hit rate 1.1% among 300,000;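 active = mean at 75% or more and at least half the replicates too; inconclusive = mean and replicates disagree; tested in HMLE shEcad cells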;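 also: 0% = median of negative and 100% = median of positive control wells; the first replicate is given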
Rce1 inhib: inhibitors of yeast Ras-converting enzyme; Q03530; yeast membranes, quenched prenylated peptide cleavage fluorescence; calls only; hit rate 0.27% among 290,000;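 active = fall in fluorescence gain of 50% or more versus controls, with final raw signal at or below 3038400; inconclusive = same 50% fall but final raw signal above 3038400; inactive = fall in fluorescence gain under 50%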;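 also: plate controls were neutral control wells for no effect and wells lacking membranes for full effect; tested at 10 µM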
Target sequence (Q03530 whole entry, looked up): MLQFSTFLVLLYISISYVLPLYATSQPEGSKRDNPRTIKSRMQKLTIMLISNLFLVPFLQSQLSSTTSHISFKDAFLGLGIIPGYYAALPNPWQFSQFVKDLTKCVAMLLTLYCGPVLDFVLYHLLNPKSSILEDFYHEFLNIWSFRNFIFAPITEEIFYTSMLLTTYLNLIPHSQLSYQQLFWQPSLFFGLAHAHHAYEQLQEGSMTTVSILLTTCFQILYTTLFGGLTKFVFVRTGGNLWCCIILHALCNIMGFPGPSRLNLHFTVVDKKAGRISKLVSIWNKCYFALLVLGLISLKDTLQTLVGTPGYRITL
PABP polyA inh: blocks human PABP binding to poly(A) RNA | fluorescence polarization | P11940 | AID 2014 | hit rate 1% among 290,000 | inhibition, % at 35 µM;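 active = 50% or more with normal probe brightness, or confirmed in later tests; inconclusive = above 50% with abnormal brightness, or retests that disagree; inactive = below 50% or failed in later tests; about a fifth of its hits are not listed in these tables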;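 also: calls also rest on retests at 20 µM and on dose response follow-up; controls were probe without protein and protein plus probe with vehicle; some compounds called inactive have numbers as strong as hits; many hits fall short of the cut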
Target sequence (P11940 whole entry, looked up): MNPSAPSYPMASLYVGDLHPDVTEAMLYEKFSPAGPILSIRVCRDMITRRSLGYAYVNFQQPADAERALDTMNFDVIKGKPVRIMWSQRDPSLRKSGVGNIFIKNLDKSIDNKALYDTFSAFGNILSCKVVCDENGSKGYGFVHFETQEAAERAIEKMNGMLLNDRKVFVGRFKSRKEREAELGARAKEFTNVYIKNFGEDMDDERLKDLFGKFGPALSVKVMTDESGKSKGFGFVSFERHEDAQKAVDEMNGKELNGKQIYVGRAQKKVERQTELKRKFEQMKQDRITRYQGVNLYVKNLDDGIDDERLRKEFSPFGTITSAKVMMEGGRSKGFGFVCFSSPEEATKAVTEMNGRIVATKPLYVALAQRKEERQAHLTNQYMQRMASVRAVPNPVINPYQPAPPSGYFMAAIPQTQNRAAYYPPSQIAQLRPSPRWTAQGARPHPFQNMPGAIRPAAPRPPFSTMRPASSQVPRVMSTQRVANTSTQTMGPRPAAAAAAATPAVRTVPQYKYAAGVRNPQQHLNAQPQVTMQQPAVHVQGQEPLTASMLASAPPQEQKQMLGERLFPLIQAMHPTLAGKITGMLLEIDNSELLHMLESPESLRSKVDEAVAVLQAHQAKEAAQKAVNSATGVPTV
eIF4H FP inh retest: recorded beside eIF4H FP inh, whose call it bears; inhibition, %; compound at 20 µM; confirmation average;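 mean of two retest wells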
PABP polyA inh retest: second read-out of PABP polyA inh, no call of its own (marks repeat the call); inhibition, %; compound at 20 µM; confirmation repeats;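 mean of two retest wells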
MT1-MMP act inh RFP: further read-out of MT1-MMP act inh, marked with its call; RFP signal change, %; measured here: RFP expression control read;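 0 = vehicle wells; hits needed this value within 50% of zero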
The depositor's hits bear a star; i = inactive; ? = inconclusive; · = no result given.

SMILES	Yeast UUG start	eIF4H FP inh	MT1-MMP act inh	MT1-MMP act inh RFP	Env fusion inh	CSC inhib	Rce1 inhib	PABP polyA inh	others
O=C(CCN1CCN(c2ccccc2)CC1)N/N=C/c1ccc([N+](=O)[O-])o1	2	36	-5	-10	-10	-9	i	4
O=C(CCNS(=O)(=O)c1ccccc1C(F)(F)F)NCC(c1ccco1)N1CCCCC1 (configuration not stated)	·	·	2	0	8	-10	i	·
Cc1ccsc1/C=C(\C#N)C(=O)NCc1ccco1	-17	-10	1	-1	·	5	i	7
O=C(CSc1nnc(NC(=O)C2CCCCC2)s1)NCc1ccco1	·	9	3	-1	0	10	i	9
O=C(CNC(=S)N(Cc1ccccc1)Cc1cccnc1)NC1CCCC1	-12	-9	-4	5	-13	-3	i	-15
O=C(C1CC1)N1CCc2cc(Br)cc(S(=O)(=O)NCc3ccc4c(c3)OCO4)c21	0	4	-3	-1	-13	-9	i	-13
Cc1cc(C)c2nc(Cl)c(C3NC(=O)c4ccccc4N3)cc2c1 (configuration not stated)	·	-2	1	-3	-6	-6	i	0
Cc1ccnc(NS(=O)(=O)c2ccc(NC(=O)Cc3ccc(F)cc3)cc2)n1	-18	-5	2	0	-31	14	i	-1
Cc1csc(NC(=O)CSCc2c(C)noc2C)n1	-7	·	0	2	-5	1	i	·
Cc1ccc2[nH]c(=O)c(CN(Cc3ccco3)C(=O)c3ccncc3)cc2c1	-3	-6	-6	-9	-405	21	i	12
O=[N+]([O-])c1cnn(-c2nc(-c3ccccc3)cc(C(F)(F)F)n2)c1	-14	9	-8	-2	1	-9	i	-4
C=CCN(CC=C)C(=O)c1c(OC)cccc1OC	·	5	0	2	·	-7	i	-2
Cc1ccc(C(=O)NS(=O)(=O)c2ccccc2)cc1	·	-7	3	2	19	-2	i	6
O=S1(=O)N=C(N(CCO)/N=C/c2ccncc2)c2ccccc21	0	-1	-1	0	16	4	·	1
Cc1nnc(SCC(=O)N2CCc3ccccc3C2)n1-c1ccccc1	-6	-2	2	1	·	-3	i	-8
O=C(Nc1ccccc1)c1cc(C2CCCCN2C(=O)OCCF)on1 (configuration not stated)	1	·	4	-2	-9	·	·	·
CC(C)(C)C(=O)OCCn1c(=O)c2cc3c(=O)n(CCOC(=O)C(C)(C)C)c(=O)c3cc2c1=O	12	4	-1	1	-88	-21	i	-1
OCC1(Cc2ccccc2)CCN(Cc2ccc(-c3ccco3)cc2)CC1	·	-6	-1	-3	-4	8	i	2
CCCCc1nn2c(N)c(/C=C3\C=Nc4ccccc43)c(=O)nc2s1	·	11	7	9	-26	29	i	23
CC(c1ccco1)N(C(=O)c1ccccc1NS(=O)(=O)c1cc([N+](=O)[O-])ccc1Cl)c1ccccn1 (configuration not stated)	·	1	1	4	7	-3	i	-6
COc1cc(OC)c(NC(=S)NCc2ccc(F)cc2)cc1Cl	-29	-4	5	3	-11	-10	i	48
O=C(NC(=S)N1CCN(c2ccc([N+](=O)[O-])cc2)CC1)c1ccccc1F	·	-4	5	-1	5	16	i	5
CCCCCCN1CC(O)=C(c2nc3ccccc3[nH]2)C1=N	-3	-7	5	2	·	-10	i	-13
CC(C)OCCCn1c(NN)nc2ccccc2c1=O	·	0	0	2	11	·	i	-6
Cc1ccc(-c2nc(CS(=O)(=O)CC(=O)N3CCN(C)CC3)c(C)o2)cc1	·	-4	0	-1	-6	-18	i	14
O=C(OCc1c(-c2ccccc2)ncc2ccccc12)c1ccc(C(F)(F)F)cc1	2	·	1	-10	-8	8	·	·
CN(C)/C(=N\S(=O)(=O)c1ccc(F)cc1)c1ccccc1	-13	5	3	5	-4	-4	i	7
CC(=O)c1cccc(NC(=O)C2CCCCC2)c1	-7	-4	-3	-2	-108	-7	i	0
Cc1ccc2nc(NC(=O)COC(=O)CSc3nc(C)cc(C)n3)sc2c1	-4	-2	-1	0	-74	-5	i	-8
COc1cc(OC)c(OC)cc1CN1CCCC(C(=O)c2ccccc2SC)C1 (configuration not stated)	·	0	4	6	-12	-1	i	0
CCOc1cc(/C=N/NC(=O)c2cccs2)cc([N+](=O)[O-])c1O	-14	-4	9	6	2	·	i	29
Cc1occc1C(=O)N1CCCC(Nc2ccc(C(C)C)cc2)C1 (configuration not stated)	4	-7	2	-5	21	-5	i	5
O=C(CSc1nc2ccccc2c(=O)n1-c1ccccc1F)N1CCOCC1	3	·	0	1	-42	-7	·	·
CC(C)(C)c1ccc(NC(=O)Nc2ccc(F)cc2)cc1	-21	3	1	-4	-87	1	i	4
COc1ccc(C=O)cc1CN1CCCN(Cc2ccccc2F)S1(=O)=O	-2	-5	0	-3	20	4	i	6
Cn1c(C(=O)NCCN2CCOCC2)cc2c(=O)n3ccccc3nc21	-8	·	2	6	-14	-10	i	·
CCOc1ccc(NC(=O)c2ccc(NC(=O)COC(=O)Cc3ccc(OC)cc3)cc2)cc1	·	3	-9	4	-74	-15	i	-6
COCC(C)NC(=O)c1cc(-c2ccc(O)cc2)on1 (configuration not stated)	-9	-2	6	6	-6	2	i	-8
O=C1CC(c2ccc(F)cc2)Cc2nc(N3CCN(c4ccccc4)CC3)ncc21 (configuration not stated)	-11	-5	2	-9	·	7	i	4
Cc1nc(C)n(C)c(=O)c1-c1ccccc1	4	4	2	3	3	-19	i	1
O=C(CCCCn1c(=O)c2ccccc2n(Cc2ccc(F)cc2Cl)c1=O)NCc1ccco1	-10	-9	7	2	·	13	i	-7
COC(=O)N/N=C\c1c(C)nn(-c2ccccc2)c1Cl	-11	0	0	0	-72	7	i	11
O=C(CSc1ncccn1)NCc1ccc(Cl)cc1	·	-2	1	4	8	-2	i	3
CC(C(=O)N1CCN(Cc2ccccc2)CC1)c1ccc([N+](=O)[O-])cc1 (configuration not stated)	·	-1	0	1	15	-9	i	0
Cc1ccsc1/C=N/n1c(=S)[nH]nc(C)c1=O	·	-7	4	5	-23	2	i	14
COC(=O)c1cc2occc2n1Cc1ccc(Cl)cc1	·	-2	-5	-4	18	7	i	10
O=C(C1CCN(S(=O)(=O)c2cccc([N+](=O)[O-])c2)CC1)N1CCOCC1	·	-2	-1	4	5	-6	i	-7
CCOC(=O)c1ccc(NS(=O)(=O)c2c(N)n(C)c(=O)n(C)c2=O)cc1	-17	·	0	-14	28	15	i	·
O=C(NCC(c1cccs1)N1CCc2ccccc21)c1ccccc1 (configuration not stated)	·	·	-6	-10	2	-4	i	·
CCn1c(C)c(C)c2cc(C(=O)N3CCN(c4ccccc4)CC3)ccc21	8	-6	11	7	11	14	i	3
C1CCCCCC(=NNc2nn[nH]n2)CCCCC1	-26	-13	-2	-1	12	-2	i	-8
CCCCCn1c(N)c(-c2nc3ccccc3o2)c2c([N+](=O)[O-])nn(C)c(=O)c21	·	74*	-3	0	12	-18	i	-2	eIF4H FP inh retest=70*;PABP polyA inh retest=43
COc1ccc(-c2nc3c(c(=O)[nH]c(=O)n3Cc3ccccc3)n2C)cc1	·	1	0	3	·	8	i	-1
O=C(Nc1ccc(-c2csc(Nc3ccc(Cl)cc3)n2)cc1)c1cccc(C(F)(F)F)c1	·	-2	·	·	31	-14	i	-4
COc1ccc(S(=O)(=O)N(C)CC(=O)NC2CC2)cc1	-13	10	2	5	-18	0	i	-2
NC(=O)c1oc2ccc(Cl)cc2c1NC(=O)CN1CCOCC1	1	-1	5	3	·	1	i	-7
COc1cc(C(=S)N2CCOCC2)cc(OC)c1OC(=O)c1cccc(C)c1	-27	5	-2	-5	9	-8	i	-3
CC1C/C(=N\NC(=S)NC(C)C)CC(C)(C)C1 (configuration not stated)	-30	5	-6	0	-18	12	i	-8
FC(F)(F)c1ccccc1-n1ccnc1	7	·	1	3	-22	-7	·	·
O=C(N/N=C/c1ccncc1)c1cccc(S(=O)(=O)Nc2ccc(Cl)cc2)c1	·	70*	2	3	4	8	i	10	eIF4H FP inh retest=96*;PABP polyA inh retest=16

Sorted by molar mass (largest number first): some entries from above.
SMILES	Yeast UUG start	eIF4H FP inh	MT1-MMP act inh	MT1-MMP act inh RFP	Env fusion inh	CSC inhib	Rce1 inhib	PABP polyA inh	others
O=C1CC(c2ccc(F)cc2)Cc2nc(N3CCN(c4ccccc4)CC3)ncc21 (configuration not stated)	-11	-5	2	-9	·	7	i	4
Cc1ccnc(NS(=O)(=O)c2ccc(NC(=O)Cc3ccc(F)cc3)cc2)n1	-18	-5	2	0	-31	14	i	-1
CCCCCn1c(N)c(-c2nc3ccccc3o2)c2c([N+](=O)[O-])nn(C)c(=O)c21	·	74*	-3	0	12	-18	i	-2	eIF4H FP inh retest=70*;PABP polyA inh retest=43
COc1ccc(C=O)cc1CN1CCCN(Cc2ccccc2F)S1(=O)=O	-2	-5	0	-3	20	4	i	6
FC(F)(F)c1ccccc1-n1ccnc1	7	·	1	3	-22	-7	·	·

(next part)
SMILES	Yeast UUG start	eIF4H FP inh	MT1-MMP act inh	MT1-MMP act inh RFP	Env fusion inh	CSC inhib	Rce1 inhib	PABP polyA inh	others
CCCN1C(=O)/C(=C/c2ccco2)SC1=Nc1ccc(OC)cc1	·	27	-5	-2	·	-5	i	-16
O=C(NNC(=O)C1COc2ccccc2O1)c1cccc([N+](=O)[O-])c1 (configuration not stated)	·	-3	-2	0	1	·	i	6
COc1ccc(C2Nc3ccccc3C(=O)N2c2ccc(Cl)cc2)cc1Cn1cc([N+](=O)[O-])cn1 (configuration not stated)	-17	-7	-1	-5	44	6	i	-5
O=C(NCc1cccnc1)/C(=C/c1ccc(Cl)cc1)NC(=O)c1ccccc1	-9	-13	0	0	0	-10	·	-8
CCC(C(=O)Nc1cnccn1)c1ccccc1 (configuration not stated)	·	2	-7	-5	7	-2	i	5
COc1ccc(/C=C\C(=O)NCC(=O)N/N=C/c2ccc(O)cc2O)cc1	-8	12	5	2	10	47	i	5
COc1cc(NC(=O)c2cccnc2)c(Cl)cc1NC(=O)c1ccccc1	-14	-5	-1	1	10	-20	i	0
O=c1[nH]cnc2nc(-c3ccccc3)c(-c3ccccc3)nc12	-8	-4	0	1	-6	·	i	10
O=C(NCC1CCCO1)C(c1cccs1)N(C(=O)c1ccc(CN2CCOCC2)o1)c1ccc(Cl)cc1 (configuration not stated)	·	-1	3	2	-43	-3	i	-5
COc1ccc(NC(=O)c2cccc(Oc3ccccc3)c2)cn1	-11	-4	-11	-18	7	58	i	-2
COCCNC(=O)C(c1ccc(C)o1)N(C(=O)c1snc(C(N)=O)c1N)c1ccc(C)c(C)c1 (configuration not stated)	6	-8	0	-1	-17	-9	i	-4
O=c1[nH]c(SCc2nc3ccccc3c(=O)n2-c2ccccc2)nc2ccccc12	·	-5	-5	-3	0	1	i	6
Cc1cccc(NC(=S)N(Cc2cccs2)Cc2cc3cc(C)ccc3[nH]c2=O)c1	·	-2	-48	-38	-32	18	i	-10
O=C(c1ccccc1)c1ccc(OCCCN2CCCCC2)cc1	-10	2	-3	0	·	1	·	20
COc1ccccc1-n1c(C)nnc1SCC(N)=O	15	1	0	3	16	7	i	2
COc1ccc(CNS(=O)(=O)NCc2ccc(OC)c(OC)c2)cc1OC	·	2	-2	-1	7	24	i	-3
CC(C)C(OC(=O)Cn1nnc2ccccc21)C(=O)NC1CCCC1 (configuration not stated)	-6	-6	3	2	-16	-18	i	3
Cc1ccc(N=Nc2ccc(O)c3ncccc23)cc1	·	1	·	·	?	99*	i	-11
O=C(Nc1ccc(S(=O)(=O)N2CCCCCC2)cc1)c1ccc(Br)o1	4	-11	-1	-6	-19	-24	i	-2

Screening data from PubChem.
